Mtb H37Rv – M. tuberculosis H37Rv growth inhibitors, H37Rv strain (AID 1626). M. tuberculosis H37Rv growth inhibition; higher % means a stronger effect. actives 0.95% (n = 220,000). one-dose inhibition, % at 10 µM; IC50 in µM for titrated hits;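 active = confirmed in a dose series; inconclusive = inhibition above 80% but not taken into the dose series; inactive = below 80% or under 30% at every dose of the series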;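 note: bacteria incubated seven days before Alamar blue readout; 0% = bacteria only wells and 100% = bacteria with antibiotic wells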
RecA intein inh – blocks M. tuberculosis RecA intein splicing | cell-free RecA intein splicing, fluorescence | actives 0.75% (n = 290,000) | AID 2221 | P9WHJ3 | inhibition, %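 (about 9 µM by stock and volumes)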; in the data active = inhibition above about 30%; inconclusive = no clear call, values can overlap the other calls;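 note: 0% = vehicle wells and 100% = reference inhibitor control wells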
Target sequence (P9WHJ3 whole entry, looked up): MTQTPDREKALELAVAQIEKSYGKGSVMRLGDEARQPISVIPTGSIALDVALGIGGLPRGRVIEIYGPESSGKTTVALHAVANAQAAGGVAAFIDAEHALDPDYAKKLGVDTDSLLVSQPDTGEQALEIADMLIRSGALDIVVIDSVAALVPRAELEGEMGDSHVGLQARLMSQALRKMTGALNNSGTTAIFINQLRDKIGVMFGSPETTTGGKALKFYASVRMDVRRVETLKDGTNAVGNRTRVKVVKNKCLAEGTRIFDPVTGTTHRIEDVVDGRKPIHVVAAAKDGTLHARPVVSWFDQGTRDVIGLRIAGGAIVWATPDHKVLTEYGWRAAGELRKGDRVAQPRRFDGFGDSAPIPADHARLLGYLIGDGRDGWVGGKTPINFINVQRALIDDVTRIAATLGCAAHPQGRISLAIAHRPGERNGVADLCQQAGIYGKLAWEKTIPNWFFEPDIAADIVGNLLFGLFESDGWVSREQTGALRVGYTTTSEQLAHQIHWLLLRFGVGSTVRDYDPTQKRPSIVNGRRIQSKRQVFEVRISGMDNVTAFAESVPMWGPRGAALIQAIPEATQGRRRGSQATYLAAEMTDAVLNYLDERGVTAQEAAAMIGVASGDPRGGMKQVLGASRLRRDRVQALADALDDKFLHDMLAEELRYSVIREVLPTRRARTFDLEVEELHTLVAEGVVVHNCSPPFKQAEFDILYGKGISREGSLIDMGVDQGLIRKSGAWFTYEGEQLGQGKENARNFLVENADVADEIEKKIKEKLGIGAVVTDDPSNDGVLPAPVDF
Arbovirus anti – antivirals against arbovirus infection | arbovirus infection cell-based antiviral screen | inhibition, % at 10 µM | actives 0.37% (n = 200,000);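 active = inhibition from about 30%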;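 note: bluetongue infection of BSR cells; cell survival read as ATP light after 72 h; 0% = infected wells without compound and 100% = uninfected wells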
YopH inh – YopH (Yersinia) phosphatase inhibition; fluorescence Ex485/Em525; AID 898; actives 0.16% (n = 140,000); inhibition, %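 (about 10 µM by stock and volumes)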;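 active = inhibition of 50% or more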;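 note: controls were vehicle for no effect and minimum signal wells for full effect; inactives centre near -20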
Mtb bLac sens – beta-lactam sensitization of Mtb H37Rv; M. tuberculosis H37Rv growth with meropenem, percent inhibition; hits of this screen are not shown here; inhibition, % at 25 µM; actives 0.27% (n = 330,000); AID 434955;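 active = about 74% or more and at least 40 points above the plate without the antibiotic, then above 30% in a dose series; inconclusive = first-round hits that could not be retested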;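 note: growth measured after seven days incubation then overnight dye step; 0% = bacteria only wells and 100% = bacteria with antibiotic; twin plates without the antibiotic show which effects depend on it; some results filed as inactive read as strong as hits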
Arbovirus anti repeat – second read-out of Arbovirus anti, no call of its own (marks repeat the call); inhibition, %; measured here: 10K subset replicate screen; many hits read low in the repeat;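 first of two repeat runs on a subset; 0% = infected and 100% = uninfected wells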
* hit, by the source's call; ? = inconclusive; · = not tested or not shown. The list is partial; count on the stated rates, not on these rows.

SMILES	Mtb H37Rv	RecA intein inh	Arbovirus anti	YopH inh	Mtb bLac sens	others
CCCCN(C)C(=O)c1nc2ccccn2c1CN1CCN(C/C=C/c2ccccc2)CC1	-7.3%	-0.3	3.2	·	0.9
COc1ccc(OC)c(S(=O)(=O)N2CCC(C(=O)N3CCCCCC3)CC2)c1	·	-4.3	·	·	-0.4
COCCNC(=O)C(NC(=O)C1CCC(C)CC1)C(C)C (stereo not given)	8.5%	3.1	0.6	·	5.5
O=C(CSc1nnc(NC(=O)c2cccc(Br)c2)s1)NCC1CCCO1 (stereo not given)	·	0.9	·	·	-1.2
COc1ccc(C(=O)Nc2ccc(NC(=O)c3cccs3)cn2)cc1	·	-1.3	·	·	-12.0
Cc1cc(-c2ccccc2)nc2cc(C(=O)N(Cc3ccccc3)Cc3ccccc3)nn12	-3.5%	32.5*	-19.0	-8.3	60.9
Cn1c(N)c(N2CCCCC2)c(=O)n(CC(=O)Nc2ccc(Cl)c(Cl)c2)c1=O	-2.2%	0.2	-6.9	-8.6	-23.6
O=C(CNC(=O)c1cccs1)c1ccc(Br)cc1	·	0.4	·	·	5.0
O=C(Nc1ccc(C(=O)OC[C@@H]2CCCN3CCCC[C@H]23)cc1)c1cccc(Br)c1	14.7%	1.4	-11.5	-14.0	5.3
Cc1c(C(=O)O)sc2nc3n(c(=O)c12)CCCCC3	-18.5%	0.9	-2.9	-4.1	-5.2
COc1ccc(C(=O)Nc2cccc(C(C)=O)c2)c(OC)c1OC	-6.6%	-1.1	-5.7	-16.3	-5.5
CN(CC1COCCO1)C(=O)c1cc(COc2c(F)cccc2F)on1 (stereo not given)	·	-1.3	·	·	?
O=c1ccccn1CCOc1ccc(Cl)cc1	5.0%	·	·	·	-2.3
Nc1nnc(SCC(=O)NCCOc2ccccc2)s1	-1.0%	·	4.8	-25.2	-6.0
Cc1ccc(S(=O)(=O)NCC2COc3ccccc3O2)cc1 (stereo not given)	13.8%	0.8	10.2	-22.9	?

Random excerpt: two entries already listed, in no set order.
SMILES	Mtb H37Rv	RecA intein inh	Arbovirus anti	YopH inh	Mtb bLac sens	others
Cn1c(N)c(N2CCCCC2)c(=O)n(CC(=O)Nc2ccc(Cl)c(Cl)c2)c1=O	-2.2%	0.2	-6.9	-8.6	-23.6
COc1ccc(C(=O)Nc2cccc(C(C)=O)c2)c(OC)c1OC	-6.6%	-1.1	-5.7	-16.3	-5.5

The listing picks up, starting five compounds before the break.
SMILES	Mtb H37Rv	RecA intein inh	Arbovirus anti	YopH inh	Mtb bLac sens	others
COc1ccc(C(=O)Nc2cccc(C(C)=O)c2)c(OC)c1OC	-6.6%	-1.1	-5.7	-16.3	-5.5
CN(CC1COCCO1)C(=O)c1cc(COc2c(F)cccc2F)on1 (stereo not given)	·	-1.3	·	·	?
O=c1ccccn1CCOc1ccc(Cl)cc1	5.0%	·	·	·	-2.3
Nc1nnc(SCC(=O)NCCOc2ccccc2)s1	-1.0%	·	4.8	-25.2	-6.0
Cc1ccc(S(=O)(=O)NCC2COc3ccccc3O2)cc1 (stereo not given)	13.8%	0.8	10.2	-22.9	?
COc1ccc(S(=O)(=O)c2c(O)cc(C)c(NS(=O)(=O)c3ccccc3)c2C)cc1	·	7.0	·	·	-4.7
Brc1ccc(-c2nn3c(Cc4ccccc4)nnc3s2)o1	1.6%	-1.9	-10.3	-36.1	-6.1
CCCNC(=O)Cn1cnc2sc(C(=O)N3CCCC(C(=O)OCC)C3)c(C)c2c1=O (stereo not given)	0.0%	1.0	-2.3	-38.3	9.7
CCOc1ccc(C2=Nc3ccc(Br)cc3C(c3ccc(N4CCOCC4)cc3)=NN2)cc1	3.9%	-0.9	18.7	-22.0	94.6
CSc1c(CC(=O)Nc2ccccc2)n(Cc2ccccc2)c2ccccc12	-0.3%	-0.5	-7.1	-15.8	2.6
COc1ccc(NC(=O)NNC(=O)c2ccc3ccccc3c2O)c(OC)c1	·	-3.1	·	·	18.9
CCC(C)NC(=O)c1ccccc1NC(=O)CN(c1cc(C)ccc1OC)S(C)(=O)=O (stereo not given)	0.1%	2.1	7.4	·	2.5
CCc1ccc(N(CC(=O)NCc2ccc(F)cc2)C(=O)c2csnn2)cc1	2.9%	2.2	-8.1	·	-2.6
O=C(Cn1ncc2c3ccccc3n(Cc3ccccc3)c2c1=O)N1CCC2(CC1)OCCO2	9.9%	·	-0.6	-25.5	·
CCn1cc(/C=N\NC(=O)COc2cccc(C)c2C)c(C)n1	6.2%	-0.2	-1.2	-9.3	3.6
CCN(CC(=O)NCc1cccs1)C(=O)c1ccc(-c2cccc(C(F)(F)F)c2)o1	·	3.2	·	·	1.9
CN1CCN(C(=O)CN(c2cc(C(F)(F)F)ccc2Cl)S(C)(=O)=O)CC1	-16.7%	-0.4	-3.3	-19.3	-4.0
CC(C)CC(c1nnnn1Cc1ccc2c(c1)OCO2)N1CCC(C(N)=O)CC1 (stereo not given)	-1.5%	1.3	4.0	·	-0.4
CCCS(=O)(=O)c1nc(S(=O)(=O)c2ccc(C)cc2)c(N2CCOCC2)s1	·	-2.2	·	·	1.0
CCCCN(CC)C(=O)c1oc2ccc(S(=O)(=O)N3CCCC3)cc2c1C	·	1.6	·	·	7.7
O=C(NCC1CCCO1)c1ccc2c(c1)S(=O)(=O)c1ccccc1C2=O (stereo not given)	-4.8%	-3.2	·	·	-2.4
CCOc1ccccc1/C=C/c1cc(C(=O)O)c2ccccc2n1	-1.1%	0.6	·	·	-2.1
Cc1cc(C)cc(C(=O)N2CCN=C2c2ccccc2)c1	0.1%	-1.3	-0.9	-26.9	3.5
Cc1nn(Cc2c(Cl)cccc2Cl)c(C)c1NC(=O)/C=C/c1cnn(C)c1C	1.3%	0.0	3.4	-3.4	9.6
O=C1CNC(=O)/C(=C\c2ccc(F)cc2)N1	·	-0.8	·	·	0.9
Cc1[nH]c2ccccc2c1/C=N/NC(=O)c1ccccc1	·	1.7	·	·	2.6
Nc1c(-c2ccccc2)c(CN2CCOCC2)nn1-c1ccc(C(=O)O)cc1	-3.5%	-1.4	-6.0	-24.5	2.3
O=C(NCCC1CCCCN1S(=O)(=O)c1ccccc1)C(=O)Nc1ccccc1 (stereo not given)	·	-0.5	·	·	2.1
COc1cccc(-n2c(O)c(C=Nc3c(C)n(C)n(-c4ccccc4)c3=O)c(=O)[nH]c2=O)c1	-6.2%	-8.4	1.7	-10.2	-3.0
CN(C)c1ccc(CN(C(=O)COc2ccccc2)C2CCS(=O)(=O)C2)cc1 (stereo not given)	-12.1%	3.6	-1.1	-39.3	-0.4
CC(C)CCn1c(Cl)nc2c1c(=O)n(C)c(=O)n2C	-9.1%	-0.6	8.8	-29.7	-0.4
CCCCn1c(=O)[nH]c2c(oc3ccccc32)c1=O	·	2.7	·	·	1.4
CN(C)c1ccc(C(C(=O)NCC2CCCO2)N(Cc2ccccc2)C(=O)c2snc(C(N)=O)c2N)cc1 (stereo not given)	·	2.6	·	·	-4.3
O=C(COC(=O)Cc1cccc(C(F)(F)F)c1)Nc1cccc2ccccc12	-6.7%	3.4	-0.4	-29.4	1.2
CCOC(=O)c1c(NC(=O)c2cccs2)sc2c1CCCC2	-13.3%	-16.0	20.6	4.3	27.9	Arbovirus anti repeat=-3.5
O=C(NCc1cccnc1)c1ccccc1[N+](=O)[O-]	2.3%	-1.2	-11.2	-23.2	0.0
CCc1ccccc1Nc1nc(N)nc(CSc2nnnn2C)n1	-2.4%	0.3	23.1	·	-6.7
CC(=O)c1cccc(Nc2nc(-c3ccccc3)nc3ccccc23)c1	·	-2.9	·	·	1.7
Cc1ccc2cc(C#N)c(SCC(=O)Nc3ccc4sc(C)nc4c3)nc2c1	·	-1.3	-6.5	-21.6	·
CC(=O)CSc1nnc(-c2ccc3c(c2)OCO3)o1	-6.6%	1.6	0.3	-27.4	-5.3
Cc1ccc(/C=N/n2c(=O)c(C(C)(C)C)nn3cnnc23)cc1	-5.5%	3.2	2.2	-10.7	2.8
COc1ccc2cc(C(=O)N3CCC(Cc4ccccc4)CC3)[nH]c2c1	·	-2.3	·	·	-2.0
O=C(CN1C(=O)/C(=C/c2ccccc2Cl)SC1=S)NC1C=CS(=O)(=O)C1 (stereo not given)	·	6.3	·	·	1.2
O=C(Nc1ccccc1C(=O)N1CCOCC1)C1CCC(=O)N1C1CCCC1 (stereo not given)	6.1%	-0.9	15.5	-14.6	-9.3
CCc1ccc(NC(=S)N(CCCN2CCOCC2)Cc2ccccn2)cc1	4.1%	1.3	6.1	-15.6	-1.8
Cc1ccc(C2C3=C(CCCC3=O)Nc3nc(SCC(=O)NCc4ccco4)[nH]c(=O)c32)cc1 (stereo not given)	-6.7%	1.4	0.4	-14.4	7.6
CCC(Oc1ccccc1)C(=O)O/N=C(\N)c1ccc(OC)c(OC)c1 (stereo not given)	17.1%	12.3	-0.3	-42.6	25.9
O=C(Nc1ccccc1C(F)(F)F)N1CCN(c2ccc3nnc(-c4ccc(F)cc4)n3n2)CC1	35.7%	2.6	-6.1	-1.0	94.8
CC(C)(C)c1ccc(C(=O)Nc2nnc(SCC(=O)NCC3CCCO3)s2)cc1 (stereo not given)	·	-0.6	·	·	?
COc1cc2c(cc1OC)C(C(=O)NCCN(C)C)C(c1cccs1)N(C)C2=O (stereo not given)	-7.0%	2.3	-1.3	·	4.5
COc1cccc(-n2c(C)n[nH]c2=O)c1	-7.2%	-1.9	3.1	-22.6	3.2
CC(OC(=O)c1ccc2ccccc2n1)C(=O)Nc1ccc(N2CCOCC2)cc1 (stereo not given)	-4.3%	·	6.9	-48.2	-6.4
COc1ccc(OCC(=O)N/N=C(/C)Cc2ccccc2)cc1	-5.9%	1.6	1.7	-27.3	4.9
CCCCCOc1ccc(/C=c2\sc3nc(=O)c(-c4ccccc4)nn3c2=O)cc1OC	-2.2%	-3.9	15.6	0.3	-6.0
CCOC(=O)N1CCC(NC(=O)c2cc(C(=O)Nc3ccc(OC)c(OC)c3)ccc2CO)CC1	-0.4%	-1.1	2.1	-29.3	-1.6
Cn1nccc1NC(=O)Nc1cccc([N+](=O)[O-])c1	-4.6%	-0.3	·	·	-13.8
CC1CC(C)(C)NC(=S)N1CCCC(=O)Nc1ccc(F)c(F)c1 (stereo not given)	-0.3%	-1.0	4.3	·	-4.1
COc1ccc(Cn2nnc3c(C)n[nH]c(=O)c32)cc1	·	-2.7	·	·	-2.9
O=C(NCCc1ccc(Cl)cc1)C1CCN(S(=O)(=O)N2CCCC2)CC1	10.7%	-2.5	12.0	-53.3	2.1
O=C(CN1CCOCC1)N1c2ccccc2Sc2ccccc21	·	1.4	·	·	1.0
O=C(O)c1ccccc1/C=N/NC(=S)NCc1ccccc1	-3.4%	1.2	·	·	-7.8
Oc1cccc(-c2nc3ccc4ccccc4c3c3c2CCC3)c1	16.8µM*	10.3	-38.0	-26.4	99.7
O=S(=O)(Nc1cccc(-n2cnnn2)c1)c1ccc(Cl)cc1	·	-2.0	·	·	-6.4
Nc1ccc2nc(CCc3ccccc3)[nH]c2c1	·	7.0	1.2	-22.7	-3.8
CCOC(=O)C1=C(N)n2c(s/c(=C\c3cccnc3)c2=O)=C(C(=O)OC)C1c1cccnc1 (stereo not given)	-8.2%	0.4	·	6.2	-6.5

Next section:
SMILES	Mtb H37Rv	RecA intein inh	Arbovirus anti	YopH inh	Mtb bLac sens	others
O=C(CSc1ccc2ccccc2c1)Nc1ncccn1	-1.8%	2.3	2.6	-24.5	3.7
OC(COCC1COc2ccccc2O1)CN1CCN(c2ccccn2)CC1 (stereo not given)	7.5%	-0.6	0.0	-44.8	-4.3
CS(=O)(=O)N1CCCC(C(=O)NCCCN2CCOCC2)C1 (stereo not given)	0.2%	-1.4	6.4	-55.7	-9.1
CC(=O)OCc1ccccc1Sc1ccccc1C(=O)NCc1ccccc1	3.2%	-1.6	·	·	-8.9
O=C(NCc1ccccc1)/C(=C/c1ccc(OC(F)F)cc1)c1ccccc1	26.5%	1.5	-12.6	-28.2	5.4
Cc1cc(=O)cc(C)n1-c1ccc(O)cc1	-1.9%	0.0	2.0	·	-6.1
O=C(NCCc1nnc2ccc(N3CCCC3)nn12)c1ccccc1	·	-0.4	·	·	-1.1
O=c1[nH]c(-c2ccccn2)nc2sc(-c3ccccc3)cc12	<0.391µM*	-10.1	-23.6	·	·
Cc1nc(=O)c(-c2ccccc2)c(C)n1CC1CCCO1 (stereo not given)	-10.3%	·	9.2	-47.0	-14.7	Arbovirus anti repeat=-1.8
Cc1csc(N/N=C/c2ccccc2F)n1	·	-1.3	·	·	3.7
COc1cc(OC)cc(C(=O)NCC(=O)OCC(=O)N2c3ccccc3NC(=O)C2(C)C)c1	-1.8%	15.5	6.5	·	9.9
CCCCN(C(=O)c1oc2ccc(OCC)cc2c1C)c1c(N)n(CC(C)C)c(=O)[nH]c1=O	·	-3.6	·	·	4.1
COc1cccc(NC(=O)Cn2c(=O)n(-c3ccccc3)c(=O)c3oc4ccccc4c32)c1	3.2%	-2.2	0.5	-23.4	-1.3
